Compound activity (PubChem BioAssay)
Rango release inh = inhibitors of RanGTP-induced Rango-importin beta complex dissociation. O95149+P62826. Biochemical FRET Rango-importin beta, RanGTP-induced dissociation. Potency, µM (titrated, usually from 46.1 µM), for inactives: at the highest dose activity change, negative = inhibition. hit rate 0.071% among 340,000. AID 540253; active means falling FRET ratio curve, often poorly fitted, with flat reads before Ran was added; inconclusive means other falling curves, or compound fluorescence or quenching; inactive means flat or rising ratio curve;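 also: potency is read from the fitted curve at half-maximal effect; % of control where 0% means no effect; nearly all actives have a fitted effect of over 45% in size; -100% = wells without RanGTP and RCC1; the record marks most hits as doubtful in a second field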
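Rango FRET biosensor (snurportin-1 IBB flanked by N-terminal EYFP and C-terminal CFP10) at 0.1 uM, with 0.25 uM importin beta in PBS, 1mM DTT, 0.02% Tween-20, 0.1% BSA. 0.6 uM Ran, 2mM GTP and 0.2 uM RCC1 were then added for 45 min at room temperature. Inhibition read as loss of FRET rise.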
Rango complex inh = prevents formation of the Rango-importin beta complex. Q14974. Rango CFP/YFP FRET sensor + importin beta, 45 min. Potency, µM (doses to about 92.2 µM), for inactives: top-dose inhibition of complex formation. hit rate 0.031% among 340,000; active = rising FRET ratio curve, often small or poorly fitted; inconclusive = mostly compound fluorescence or quenching in the first reads; inactive = flat curves in all reads;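 also: potency is read from the fitted curve at half-maximal effect; 0% = DMSO wells and 100% = buffer wells lacking importin beta; nearly all actives have a fitted effect of over 15% in size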
Target sequence (Q14974 whole entry, looked up): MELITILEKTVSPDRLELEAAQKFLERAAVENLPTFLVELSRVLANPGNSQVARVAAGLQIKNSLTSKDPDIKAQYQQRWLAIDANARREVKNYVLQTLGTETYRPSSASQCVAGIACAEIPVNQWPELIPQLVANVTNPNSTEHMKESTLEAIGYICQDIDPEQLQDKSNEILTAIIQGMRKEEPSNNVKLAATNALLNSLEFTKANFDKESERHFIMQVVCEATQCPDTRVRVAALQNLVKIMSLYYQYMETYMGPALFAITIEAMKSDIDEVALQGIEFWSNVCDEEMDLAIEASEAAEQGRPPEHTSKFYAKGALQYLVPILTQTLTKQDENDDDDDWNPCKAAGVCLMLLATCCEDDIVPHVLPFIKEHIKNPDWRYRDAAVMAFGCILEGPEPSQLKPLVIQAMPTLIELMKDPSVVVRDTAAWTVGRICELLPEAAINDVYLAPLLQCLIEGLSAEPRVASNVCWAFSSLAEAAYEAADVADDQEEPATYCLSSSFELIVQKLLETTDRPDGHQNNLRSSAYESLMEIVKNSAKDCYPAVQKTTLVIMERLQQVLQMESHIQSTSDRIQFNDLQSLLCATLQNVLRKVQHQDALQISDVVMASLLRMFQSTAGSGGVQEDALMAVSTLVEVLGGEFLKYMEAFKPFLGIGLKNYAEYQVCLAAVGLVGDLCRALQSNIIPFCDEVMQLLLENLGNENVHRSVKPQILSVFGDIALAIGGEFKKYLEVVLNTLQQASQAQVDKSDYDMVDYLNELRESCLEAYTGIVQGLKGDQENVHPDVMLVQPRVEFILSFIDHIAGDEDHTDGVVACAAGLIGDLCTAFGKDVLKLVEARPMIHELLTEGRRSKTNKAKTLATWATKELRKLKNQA
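Inhibition scored from the CFP 486 nm/YFP 530 nm FRET ratio 45 min after adding 0.125 microM importin beta to 50 nM Rango biosensor preincubated 5 min with compound (room temperature, PBS with DTT, Tween-20, BSA). No-importin wells as positive control.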
GLA inh pH 4.5 = alpha-galactosidase A (human) inhibition, pH 4.5 | P06280 | purified enzyme, 4-MU-alpha-Gal fluorescence, pH 4.5 | activity change, negative = inhibition, % at 105 µM | 230,000 tested, under 10 active; inconclusive = small, poorly fitted or top-dose-only inhibition, or a rising curve; inactive = flat fitted curve, though single readings scatter; no compound was filed as active;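 also: 0% = full activity with enzyme and -100% = basal without enzyme; dose as in the result columns while the protocol names 77 µM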
miR-21 reporter = miR-21 reporter, rising signal. HeLa miR-21 FLuc reporter, luciferase, 48 h. Potency, µM (top dose mostly 38.3 µM), inactives show top-dose reporter change, positive = more light. 340,000 tested, under 10 active. AID 2288; active = well fitted rising curve with a large enough effect; inconclusive = small, poorly fitted or top-dose-only effect; inactive = no such curve, though single readings can be large or run the other way;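 also: % of control where 0% means no effect; miR-21 action dims this reporter so a rising signal means less miR-21 action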
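HeLa cells endogenously expressing miR-21, stably carrying CMV-driven firefly luciferase with a downstream miR-21 binding site, 2000 cells/well. Titrations up to approximately 40 uM, 48 hours; luciferase luminescence read.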
Numbers without * were called inactive; ? = inconclusive; nt = not tested or not shown. Some of the compounds tested; the hit share may differ from the screen's.

Rango release inh,Rango complex inh,GLA inh pH 4.5,mol,miR-21 reporter
-1%,1.3%,-13,COc1cc(/C=C2/C(=O)N(c3ccc([N+](=O)[O-])cc3)N=C2N2CCOCC2)ccc1O,1%
8%,0.5%,nt,O=S(=O)(NNC(=S)Nc1ccc(S(=O)(=O)Nc2ncccn2)cc1)c1ccc(Br)cc1,-12%
23%,1.1%,nt,COC(=O)C(C(=O)OC)C(CC(=O)c1ccc(C)cc1)c1cc(OC)c(OC)c(OC)c1 (stereo not drawn),-3%
-6%,0.1%,2,CC(=O)c1ccc(C(=O)Nc2nnc(-c3ccc(Cl)cc3)o2)cc1,-6%
-2%,0.3%,nt,O=C(NCC1(N2CCCCC2)CCCCC1)c1cccc(S(=O)(=O)Nc2ccc(F)cc2)c1,nt
8%,-3.8%,?,N/C(=N\OC(=O)COc1cc(Cl)c(Cl)cc1Cl)c1ccccn1,-59%
1%,-1.2%,-11,O=C1CC(c2ccsc2)Sc2ccccc2N1 (stereo not drawn),-5%
20%,-3.5%,-1,Brc1ccccc1-c1nnc2sc(Cc3ccccc3)nn12,-11%
-6%,4.2%,7,O=C(Nc1cccc(N2CCCC2)c1)c1cccs1,-18%
4%,-0.5%,nt,CC(=O)N1CCN(C(=O)C2(NC(=O)Nc3cccc(F)c3)CCCCC2)CC1,1%
-12%,6.8%,5,O=c1[nH]c(Cc2cccs2)nc2ccccc12,-9%
6%,-3.2%,3,CCN(CC)C1=CC(=O)OC12CCCCC2,9%
-16%,3.1%,4,CC(C)C(=O)Nc1ccccc1Cc1ccccc1,-3%
13%,-0.5%,nt,Cc1ccc(N=C2SCCCN2C(=O)c2cccc(N3C(=O)CCC3=O)c2)cc1Cl,nt
-4%,-0.9%,nt,NC(=O)C1CCN(CC(O)CSc2ccc(F)cc2)CC1 (stereo not drawn),-1%
4%,-0.4%,-10,O=C(Nc1c2c(nn1-c1ccc(F)cc1)CS(=O)(=O)C2)C12CC3CC(CC(C3)C1)C2,-8%
1%,-0.8%,10,COc1ccccc1OCC(=O)Nc1ccc(-c2nnc(-c3ccco3)o2)cc1,1%
12%,0.0%,9,COC(=O)c1c(NC(=O)CN2CCN(c3cccc(Cl)c3)CC2)sc(C)c1C,-2%
-12%,-0.6%,11,COc1ccc(CCN2C(=O)CC(Cc3cccc(C)c3)C2=O)cc1OC (stereo not drawn),-8%
-7%,-2.8%,-4,COc1ccccc1Nc1ncc(C(=O)N2CCN(Cc3ccc(OC)c(OC)c3OC)CC2)c2ccccc12,22%
8%,-1.8%,nt,CN(C(=O)c1cccc(C(F)(F)F)c1)C1CCCc2ccccc21 (stereo not drawn),-5%
-15%,-0.2%,nt,CCN(Cc1nc(-c2ccc(OC)c(OC)c2)no1)C(=O)c1ccoc1C,-7%
18%,-0.9%,nt,CC(C)Oc1cccc(C(=O)C2CCCN(C(=O)c3cncs3)C2)c1 (stereo not drawn),-13%
9%,-2.3%,nt,COc1ccc(-c2ccc3oc(-c4ccsc4)cc(=O)c3c2)cn1,nt
22%,-3.5%,1,O=C(c1ccccc1)N1CCN(C2CCCCCC2)CC1,-5%
1%,-4.2%,-1,CC(C)C(=O)OCC(=O)NCc1ccccc1Cl,-1%
-9%,-0.6%,3,CC(OC(=O)c1cc(S(=O)(=O)Nc2ccc(F)cc2)ccc1Cl)C(=O)Nc1ccc2c(c1)OCCO2 (stereo not drawn),-9%
-2%,1.8%,6,CCOc1cc2[nH]c(=S)n(CCCC(=O)NCc3ccco3)c(=O)c2cc1OCC,3%
4%,-5.0%,-10,CCOc1ccc(NC(=S)N(Cc2ccc(Cl)cc2)Cc2ccco2)cc1,-3%
2%,-0.6%,-1,COc1cc(OC)cc(C(=O)Nc2cc(NC(=O)c3ccco3)ccc2OC)c1,5%
-8%,-1.4%,nt,Cc1[nH]c2ccc(C(=O)N3CCN(c4cccc(Cl)c4)CC3)cc2c1C,13%
0%,1.5%,7,COC(=O)c1cc(-c2ccccc2)n[nH]1,-14%
-4%,5.0%,1,COC(=O)CC1C(=O)NCCN1C(=O)CSc1nc2ccccc2s1 (stereo not drawn),-6%
-23%,2.8%,-3,COc1ccc(Br)cc1CNc1ccc(S(N)(=O)=O)cc1,-13%
-5%,-1.3%,nt,N#Cc1ccccc1S(=O)(=O)N1CCN(c2nc(-c3cccnc3)nc3ccccc23)CC1,nt
10%,0.1%,-4,CCc1ccc(S(=O)(=O)NCC(O)COc2ccc(OC)cc2)cc1 (stereo not drawn),1%

A second format for some results above.
compound,Rango release inh,Rango complex inh,GLA inh pH 4.5,miR-21 reporter
COc1ccccc1Nc1ncc(C(=O)N2CCN(Cc3ccc(OC)c(OC)c3OC)CC2)c2ccccc12,-7%,-2.8%,-4,22%
CN(C(=O)c1cccc(C(F)(F)F)c1)C1CCCc2ccccc21 (stereo not drawn),8%,-1.8%,nt,-5%
CCN(Cc1nc(-c2ccc(OC)c(OC)c2)no1)C(=O)c1ccoc1C,-15%,-0.2%,nt,-7%
CC(C)Oc1cccc(C(=O)C2CCCN(C(=O)c3cncs3)C2)c1 (stereo not drawn),18%,-0.9%,nt,-13%

(list continues)
Rango release inh,Rango complex inh,GLA inh pH 4.5,mol,miR-21 reporter
-3%,?,3,Cc1[nH]c2ccc(F)cc2c1CCN1C(=O)OC(C)(C)C1(C)O (stereo not drawn),-7%
4%,-3.2%,-5,Cc1ccc(CNC(=O)c2ccc(Br)o2)cc1,-20%
9%,-2.0%,9,CC(=O)Nc1ccc(S(=O)(=O)N2CCC(n3cnc4cc(F)ccc43)CC2)cc1,5%
-3%,-0.7%,-9,CCCN1CCN(CCCNC(=O)CN2C(=O)COc3ccccc32)CC1,-4%
-22%,-5.2%,-7,CC1=NN2C(=N)/C(=C\c3cc(C)n(-c4ccc(C)cc4)c3C)C(=O)N=C2S1,4%
?,3.9%,-19,COc1ccc(C(C(O)C(=O)c2c[nH]c3ccccc23)N2CCN(c3ccccc3)CC2)cc1 (stereo not drawn),3%
-13%,-2.0%,-7,COc1ccc(/C=N/Nc2ncnc3sc(C)c(C)c23)cc1,-45%
-8%,?,?,Cn1c(-c2ccc(Br)o2)nc2cc(Br)ccc21,-51%
-4%,0.8%,nt,COc1ccccc1CN1CC(C(=O)N(Cc2cnn(C)c2)C(C)C)CCC1=O (stereo not drawn),-12%
7%,-1.0%,nt,C=C(CC[C@@H](O)C(C)(C)O)[C@H]1CC[C@]2(C)[C@@H]1CCC1[C@@]3(C)CCC(=O)C(C)(C)C3CC[C@]12C (stereo partly drawn),nt
3%,-0.3%,nt,COc1ccc(C(=O)Cn2cnc3ccccc3c2=O)c(OC)c1,-9%
-2%,3.5%,nt,O=C(c1cccc([N+](=O)[O-])c1)N1CCN(c2ncccn2)CC1,-6%
-7%,-0.4%,4,Cc1c(C(=O)N2CCCC2)nnn1-c1nonc1N,-4%
19%,8.1%,3,CCCn1nc(C(=O)NC2CCCc3ccccc32)c2ccccc2c1=O (stereo not drawn),20%
-4%,-0.3%,nt,N#Cc1ccccc1S(=O)(=O)N1CCN(C(=O)C2CCCC2)CC1,-5%
-2%,1.6%,7,O=C(Nc1nc2ccccc2[nH]1)c1ccc(S(=O)(=O)N2CCOCC2)cc1,-3%
16%,-1.8%,-5,Cc1ccc(-c2nn3c(-c4ccco4)nnc3c3ccccc23)cc1S(=O)(=O)NCC1CCCO1 (stereo not drawn),-5%
0%,-1.6%,nt,O=C(NCc1ccc(F)cc1)c1cc(S(=O)(=O)N2CCCCC2)c[nH]1,3%
1%,-0.5%,1,CC(=O)c1ccc(S(=O)(=O)N2CCCC2)cc1,-35%
-1%,-0.9%,-6,CCS(=O)(=O)Nc1cccc(-c2nc3cccnc3s2)c1C,-12%
0%,0.4%,1,CCC(C)Cn1c(C(C)O)nc2ccccc21 (stereo not drawn),-2%
2%,0.7%,nt,NC(=O)C12C(=O)NC(=O)C1(C(=O)O)C21CCCC1 (stereo not drawn),nt
-8%,-2.8%,-1,COC(=O)CNC(c1ccccc1)c1cc(Br)ccc1NC(C)=O (stereo not drawn),-1%
4%,0.2%,-4,COc1cccc(OC)c1C(=O)Nc1ccc(CN2CCOCC2)cc1,-1%
3%,1.8%,nt,O=C(NCCCO)C(=O)Nc1cc2c3c(c1)CCC(=O)N3CCC2,6%
5%,0.6%,-10,CCC(C)[C@H](NC(=O)NC1CCCc2ccccc21)C(=O)O (stereo partly drawn),-1%
-2%,0.6%,-16,CCCCC1=C(C(=O)OCC)C(C(=O)OCC)Oc2ccccc21 (stereo not drawn),nt
-19%,-1.2%,nt,CCn1c(SCC(=O)NC2CCCC2)nnc1-c1ccccn1,2%
6%,0.4%,-4,O=C1NC(=O)/C(=C\c2ccc(N3CCOCC3)o2)N1,0%
-8%,1.2%,-1,CCCc1nc2c([nH]1)c(=O)n(C)c(=O)n2C,6%
-7%,-2.9%,-2,Cn1cccc1/C=C(\C#N)C(N)=S,2%
?,?,-8,CCOC(=O)C1=C(CSc2nc3c(cc2C#N)CN(C)CC3)OC(N)=C(C#N)C1c1ccncc1 (stereo not drawn),3%
-8%,-4.9%,nt,Cc1cc(C)c(C)c(S(=O)(=O)N2CCN(c3ncnc4sc(C)c(C)c34)CC2)c1C,3%
-5%,1.5%,8,COc1cc(C(=O)OCC(=O)c2cc(C)n(C)c2C)cc(OC)c1OC,21%
1%,-0.2%,nt,O=C1C=C(c2cccc(CO)c2)C[C@@H](c2ccc(F)cc2)C1,nt
2%,1.2%,-1,COc1ccc(C(=O)Nc2ccc(S(=O)(=O)NC(C)(C)C)cc2)cc1[N+](=O)[O-],1%
16%,-5.3%,nt,CCOc1cccc(/C=C(\C#N)C(=O)NC2CC2)c1,nt
-3%,5.8%,-4,Cc1cc(C)n(-c2n[nH]c(=O)c3ccccc23)n1,-5%
-7%,0.6%,-24,CCCCNC(=O)CN1C(=O)NC(CCc2ccccc2)C1=O (stereo not drawn),-7%
2%,1.6%,-9,COc1cccc(N=Nc2c(=O)[nH]n3c(=O)cc(C)[nH]c23)c1,-16%
3%,-3.0%,2,c1ccc(CSc2nnc([C@@H]3CCCN3)o2)cc1,-9%
-8%,7.8%,nt,O=C(O)/C=C/c1ccc(Oc2ncccn2)cc1,-2%
-27%,?,1,Cc1ccc(NN=C2c3ccccc3-c3ccccc32)cc1,-47%
13%,-5.7%,4,N#Cc1cc2c([nH]c1=O)CCCC2,-15%
-2%,0.8%,-3,Cc1ccc2nc(-c3ccc(SCC(=O)O)nc3)[nH]c2c1,-1%
-11%,?,-4,COC(=O)C1=C(Nc2ccc(C)cc2)C=C(C)C(C(=O)OC)C1c1ccc(OC)cc1 (stereo not drawn),23%
8%,-2.8%,7,COc1ccc(C(=O)NNC(=O)C(NC(=O)c2ccccc2NC(=O)c2ccco2)C(C)C)cc1 (stereo not drawn),-4%
?,-1.7%,3,CCN1C(=O)C(O)(CC(=O)C(C)(C)C)c2cc(Br)ccc21 (stereo not drawn),3%
nt,nt,-7,CCOc1ccc2nc(NC3=NCN(Cc4ccco4)CN3)nc(C)c2c1,0%
4%,6.4%,nt,COc1ccc(-n2c(SCC(=O)O)nc3sc4c(c3c2=O)CCCC4)cc1,-6%
2%,3.9%,-4,O=C1Nc2ccc3sc4ccccc4c3c2C1=O,-12%
-1%,-3.1%,-2,CC(C)CCNC(=O)C1C2C=CC3(CN(Cc4ccccc4Cl)C(=O)C13)O2 (stereo not drawn),-1%
12%,-0.4%,-10,N#CCCn1cc(C(=O)NCc2ccccc2)c(-c2cccs2)n1,0%
-11%,-2.7%,-8,O=C(NCCOC(=O)c1ccc(Cl)c(S(=O)(=O)N2CCCCC2)c1)c1ccncc1,-2%
8%,-0.5%,nt,Cc1c(CN2CCC(Oc3ccc(C(=O)N4CCCCC4)cc3)CC2)cnn1C,-6%
4%,1.9%,-5,O=C(NCc1ccccc1)c1c[nH]c2cc3c(cc2c1=O)OCCO3,-77%
-3%,1.6%,0,CCOC(=O)c1nnn(-c2nonc2N)c1CSc1nnc(N)s1,1%
